# High-throughput results deposited in PubChem BioAssay by several laboratories.
# PKD1 inh: PKD1 (human) kinase inhibition; PKD1 kinase fluorescence polarization assay; inhibition, %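 (about 10 µM by stock and volumes)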; hit rate 0.056% among 200,000; AID 797;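 active means inhibition of 50% or more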;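 further: controls were vehicle for no effect and a reference inhibitor for full effect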
# RGS16-Gao: regulators of human RGS16-Galphao interaction | O15492+P09471 | hit rate 0.38% among 220,000 | bead-based flow cytometry RGS16-Galphao binding, fluorescence; actives lie on both sides | binding response (% of control), % at 10 µM;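 active means below 25% or above 175%, edge rows of some plates excepted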;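 further: Galphao activated by GDP with aluminum fluoride before binding; 100% = wells without compound and 0% = beads without RGS; some results beyond the cut were filed as inactive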
# Target sequence (O15492 whole entry, looked up): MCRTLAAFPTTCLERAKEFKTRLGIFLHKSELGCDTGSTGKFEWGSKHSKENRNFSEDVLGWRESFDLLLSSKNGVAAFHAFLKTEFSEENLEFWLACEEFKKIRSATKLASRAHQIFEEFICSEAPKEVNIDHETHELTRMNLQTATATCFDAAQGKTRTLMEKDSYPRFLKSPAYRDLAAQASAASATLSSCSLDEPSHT
# Target sequence (P09471 whole entry, looked up): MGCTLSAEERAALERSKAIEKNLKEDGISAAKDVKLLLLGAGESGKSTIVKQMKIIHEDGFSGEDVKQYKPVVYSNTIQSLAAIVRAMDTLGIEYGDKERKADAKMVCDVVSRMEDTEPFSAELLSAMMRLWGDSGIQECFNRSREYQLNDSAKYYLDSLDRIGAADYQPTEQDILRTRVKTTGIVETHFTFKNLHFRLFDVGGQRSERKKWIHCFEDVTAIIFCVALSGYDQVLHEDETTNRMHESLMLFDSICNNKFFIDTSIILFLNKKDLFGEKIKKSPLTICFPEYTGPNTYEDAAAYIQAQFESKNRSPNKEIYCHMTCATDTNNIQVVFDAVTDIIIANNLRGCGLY
# GALR2 agonist: agonists of human galanin receptor 2 (GALR2). GALR2-expressing cells, agonist activation read-out. activation, %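 (tested at 5 µM)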. hit rate 0.48% among 140,000;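 active means above mean plus 3 SD of all compounds, about 5% in these data, not always enough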;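 further: 0% = vehicle buffer wells and 100% = reference agonist at full effect; tested in CHO reporter cells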
# Target sequence (O43603 whole entry, looked up): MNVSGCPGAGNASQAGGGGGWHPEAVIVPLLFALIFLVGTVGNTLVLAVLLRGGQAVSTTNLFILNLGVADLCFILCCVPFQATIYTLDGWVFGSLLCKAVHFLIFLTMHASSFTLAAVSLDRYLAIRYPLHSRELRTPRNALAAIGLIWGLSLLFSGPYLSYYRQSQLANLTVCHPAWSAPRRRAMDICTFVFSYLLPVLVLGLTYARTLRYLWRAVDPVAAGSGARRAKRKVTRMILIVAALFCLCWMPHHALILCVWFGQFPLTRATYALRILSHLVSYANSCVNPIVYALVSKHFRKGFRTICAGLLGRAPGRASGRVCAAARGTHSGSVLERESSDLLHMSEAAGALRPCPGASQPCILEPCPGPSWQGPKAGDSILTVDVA
# HSV augment: HSV replication enhancement; HSV replication augmentation in cells, fold increase; maximum fold increase; hit rate 0.005% among 220,000;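 active means peak rise of 1.5-fold or more in the series; inconclusive means self-fluorescent or not available for retest; tested in PC3 cells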;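 further: first round at 10 µM; read as green reporter fluorescence; hits show the peak of a series up to 25 µM; 1 = signal of infected wells without compound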
# Insulin prom inh: TRM-6 insulin promoter activity inhibition | inhibition, % at 2 µM | hit rate 0.9% among 130,000 | AID 1273 | TRM-6 cells (human fetal islet line), insulin promoter-eGFP reporter, imaging; reporter expression induced with tamoxifen;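 active means inhibition above the mean plus 3 SD, with well images judged a real hit on visual review, cut at about 60% in these data, passing the limit was not always enough; inconclusive means inhibition over the cutoff but images rejected on review; inactive means inhibition not above the cutoff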
# Insulin prom inh cell count: also measured in Insulin prom inh; calls as there; normalized cell count, %; measured here: cell count, toxicity; reference of the scale not given here;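 cells exposed to compound for 48 h; stained nuclei by imaging scaled within each plate; lower means fewer cells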
# HSV augment primary fold: also measured in HSV augment; calls as there; fold increase; compound at 10 µM; measured here: primary screen fold increase 10 uM; tested in PC3 cells;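 GFP signal in the first replicate; 1 = infected wells without compound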
# * = called active by the depositor; i = inactive; ? = inconclusive; / = no result given; & = joins results of further samples.
SMILES,PKD1 inh,RGS16-Gao,GALR2 agonist,HSV augment,HSV augment primary fold,Insulin prom inh,Insulin prom inh cell count
COc1ccc(NC(=O)Nc2ccc(F)cc2F)c(C)c1,3,98,-2.1,i,0.88,-28,136
CC(NC(=O)c1ccco1)c1ccc2c(c1)OCCO2 (stereo unspecified),-12,105,-3.0,i,0.99,27,170
Cc1ccc2nc(C)c(C(=O)N/N=C/c3cccs3)cc2c1,-10,102,-2.6,i,0.92,-10,106
Cc1nn(-c2ccccc2)nc1CNC(=O)C1CCC1,/,103,/,i,0.87,/,/
COCCN1Cc2cccc(C(=O)Nc3cc(C)cc(C)c3)c2C1=O,10,75,1.4,i,0.77,/,/
O=C(CSc1c2c(nc3ccccc13)CCC2)N1CCCC1,-3,93,/,i,0.92,-7,85
N#Cc1ccc(-c2cccnc2)nc1SCC(N)=O,/,102,/,i,0.71,/,/
O=C(CCn1c(=S)oc2ccccc21)NC1CCCCCCC1,/,100,/,i,1.1,/,/
Fc1ccc(CNCc2ccc(Br)cc2)cc1,-6,81,-0.2,i,0.85,14,115
CC/C(C)=N/NC(=S)NCc1ccco1,-7,124,-0.9,i,1,40,88
N#CCc1c(C#N)c(N)nc(N2CCN(S(=O)(=O)c3ccccc3)CC2)c1C#N,11,97,3.9,i,0.94,21,60
C/C(O)=C(\C#N)c1nc2ccccc2[nH]1,-9,104,-1.4,i,1,1,85
O=C(CSc1nnc2c3ccccc3c3ccccc3c2n1)Nc1ccccc1F,5,90,-0.5,/,/,/,/
COc1ccc(N(C)S(=O)(=O)c2cccc(C(=O)NCc3ccc4c(c3)OCO4)c2)cc1,-5,99,/,i,0.87,-146,97
COC(=O)C1=C(C)N(Cc2ccco2)C(=O)N[C@H]1c1cccc(C(F)(F)F)c1,0,56,-3.1,i,0.83,5,110
C#CCOCCOCCOCCNc1nc(N2CCN(C(=O)[C@H]([C@@H](C)CC)n3cc(CCCN=C(N)N)nn3)CC2)nc(N2CCN(C(=O)[C@H](CCCCN)n3cc(CCC(=O)O)nn3)CC2)n1,-10,100,-2.1,i,0.74,-10,112
O=C(O)c1ccc(NC(CSCc2ccc(F)cc2)C(=O)O)c([N+](=O)[O-])c1 (stereo unspecified),-6,100,-0.9,i,1.1,58,81
CCOC(=O)CNC(=O)c1sc2nc(C)cc(C)c2c1N,-2,102,-1.4,i,0.99,/,/
O=C(NCc1ccc(S(=O)(=O)Nc2ccccc2Cl)s1)c1ccccc1,/,101,/,i,1,/,/
O=C(NC1CCN(Cc2ccccc2)CC1)c1c(F)cccc1F,-8,95,0.7,i,0.85,6,81
CN1CCC2(CC1)C1CN(C)CC=C1C(C#N)=C(N)C2(C#N)C#N (stereo unspecified),7&3,104&106,-3.1,?,/,-156,128
CCCC[C@@H]1CN=C(N)N1CCc1cc(C(F)(F)F)cc(C(F)(F)F)c1,/,100,/,i,0.78,/,/
CCOC(=O)c1cnn(-c2ccccc2)c1NC(=O)c1cccs1,-7,103,-0.6,i,0.85,/,/
COC(=O)c1c(N2C(=O)CCC2=O)sc2c1CCCC2,-7,103,-5.4,i,0.96,/,/
CCCCNc1cc(C)nc(N2CCOCC2)n1,-1,104,-2.3,i,0.93,-22,90

# Continuation:
SMILES,PKD1 inh,RGS16-Gao,GALR2 agonist,HSV augment,HSV augment primary fold,Insulin prom inh,Insulin prom inh cell count
C[C@H](NC(=O)NCc1cccs1)C(=O)O,-1,100,-1.0,i,1,41,86
COc1ccc(C(=O)Nc2ccc3oc(Cc4ccc(Cl)cc4)nc3c2)cc1OC,-10,99,-1.6,i,0.86,/,/
N#Cc1nc(COc2ccc(-c3ccccc3)cc2)oc1NCCCN1CCOCC1,-11,105,-1.1,i,0.75,50,140
CCCCn1nnc(NC(=O)C(c2ccccc2)c2ccccc2)n1,5,103,/,i,0.98,/,/
CCCN(Cc1ccccc1)C(=S)Nc1ccc(OCC)cc1,2,84,/,i,0.99,5,61
O=C(c1ccccc1)N1CCCC(C(=O)N2CCN(c3ccccc3)CC2)C1 (stereo unspecified),/,101,/,i,1,/,/
O=c1cc(CSc2nnnn2-c2ccccc2)nc2sccn12,-3,105,/,i,0.97,33,90
COc1ccc(C2C(C#N)=C(N)OC3=C2C(=O)CC(C)(C)C3)c([N+](=O)[O-])c1OC (stereo unspecified),-11,97,-1.5,i,1,-22,80
O=C(COC(=O)Cc1ccc(F)cc1)Nc1cc(S(=O)(=O)N2CCOCC2)ccc1N1CCCC1,-4,117,-1.2,i,1.2,/,/
c1ccc(-n2ncc3c(NCCCN4CCOCC4)ncnc32)cc1,-2,109,-1.8,i,0.77,-18,82
Cc1onc(-c2ccccc2)c1C(=O)N1CCCN2C(=O)c3ccccc3C21 (stereo unspecified),/,96,/,i,0.97,/,/
Cc1nn(-c2ccccc2)c(C)c1NC(=O)Cc1cccs1,-2,58,-0.5,i,0.91,7,121
CC(=O)Nc1ccc(S(=O)(=O)N2CCN(c3cc(C)ccc3C)CC2)cc1,-7,107,-1.3,i,0.69,/,/
O=C(Nc1ccc(N2CCOCC2)c(Cl)c1)c1ccco1,-5,103,2.9,i,0.62,-79,64
O=C(CSCC(=O)Nc1cccc2ccccc12)Nc1cccc2ccccc12,/,93,/,i,0.96,/,/
CC(=O)N1CC2(C)CN(C(C)=O)CC(C)(C1)C2,-7,102,-1.9,i,0.8,31,124
CCc1c(C)nc2cc(-c3ccc(OC)c(OC)c3)nn2c1N1CCCC1,-1,98,-2.7,i,0.87,/,/
O=C(CCn1c(=O)c2ccccc2n(Cc2cc(=O)n3ccccc3n2)c1=O)NCc1ccco1,-1,95,0.1,i,1,-12,98
CC(=O)Nc1ccc(S(=O)(=O)n2cnc3cc(C)c(C)cc32)cc1,7,38,-0.9,/,/,/,/
CC(C)NCC(O)COC1CCC(C(C)(C)C)CC1 (stereo unspecified),-4,93,/,i,0.9,/,/
O=C(NCc1ccc2c(c1)OCO2)c1c(O)c2cccc3c2n(c1=O)CCC3,-6,104,0.1,i,0.92,0,98
CCCCCCCCCCOC(=O)NC1CCS(=O)(=O)C1 (stereo unspecified),-4,101,/,i,0.82,26,77
CCOc1ccc(NC(=O)CC2C(=O)N(CC)C(=S)N2CCN2CCOCC2)cc1 (stereo unspecified),-9,116,/,i,1,17,134
O=C(O)COc1ccc2oc3ccccc3c2c1,-8,98,/,i,1,/,/
CCOC(=O)CSc1nc(C)c2cccc(C)c2n1,/,101,/,i,1.2,/,/

# The list goes on:
SMILES,PKD1 inh,RGS16-Gao,GALR2 agonist,HSV augment,HSV augment primary fold,Insulin prom inh,Insulin prom inh cell count
CCOC(=O)C1=C(CN2CCSCC2)NC(=O)NC1c1ccc2c(c1)OCO2 (stereo unspecified),-2,104,/,i,0.99,/,/
Cc1ccc(N(C(=O)c2ccc(CN3CCOCC3)o2)C(C(=O)NCCC(C)C)c2cccs2)c(C)c1 (stereo unspecified),-6,99,-1.3,i,0.85,/,/
Cc1cc(/C=C2\SC(=O)NC2=O)c(C)n1-c1ccc(N2CCOCC2)cc1,/,109,/,i,0.89,/,/
Cc1ccc(OCCN2CCN(C)CC2)c([N+](=O)[O-])c1,10,108,-0.9,i,0.91,-39,159
CCOc1ccccc1Nc1ccc(C(=O)O)cc1NC(C)=O,-7,91,-1.3,i,1.1,/,/
O=C(c1ccc(-c2ccc(Cl)cc2)o1)N1CCN(c2ccc([N+](=O)[O-])cc2Cl)CC1,1,100,-3.5,/,/,/,/
O=C(c1ccccc1)N1CCCC(c2ccc(Cl)cc2)=N1,4,100,-1.9,i,0.89,15,126
Cc1nnsc1C(=O)Nc1ccccc1Cl,2,61,-4.0,i,0.91,/,/
c1ccc(-c2csc(-n3cnnn3)n2)cc1,7,103,-2.4,i,0.88,-29,108
O=C(O)Cc1cc(C(=O)Nc2ccc(Br)cc2)sc1-c1ccccc1,5,108,-0.8,i,0.99,8,65
CC(C)Cn1c(N)c(C(=O)CCl)c(=O)n(C)c1=O,-8,57,-1.7,i,0.87,-45,123
CSc1nnc(C)c(=O)n1COC(=O)COc1ccc(F)cc1,-10,105,/,i,0.99,0,123
CC(C)(C)NC(=O)Cn1nnnc1-c1nonc1N,-7,106,-1.6,i,1,-27,138
COC(=O)c1sc(N2CCCCC2)c(C#N)c1N,/,103,/,i,0.91,/,/
O=C(O)CSc1c2c(nc3cc(C(=O)NCCN4CCOCC4)ccc13)CCC2,/,104,/,i,1.2,/,/
O=C1C2CCCN2C(=O)N1CCCCN1CCN(c2cccc(Cl)c2)CC1 (stereo unspecified),-1,15,-1.2,i,1.1,46,96
CC(Sc1ccc(Cl)cc1)C(=O)Nc1ccc(S(=O)(=O)N2CCOCC2)cc1 (stereo unspecified),-3,106,-1.3,i,0.87,-14,68
Cc1scc(C(=O)N2CCN(S(C)(=O)=O)CC2)c1-c1ccccc1,3,96,-1.6,i,0.93,-50,111
CCOc1ccc(Nc2nc(NCC3CCCO3)c3ccccc3n2)cc1 (stereo unspecified),-1,107,/,i,0.63,-40,58
CCCCCCS(=O)[C@H]1CS(=O)(=O)C[C@@H]1S(=O)CCCCCC (stereo partly specified),0,95,-1.5,i,0.94,/,/
CC(C)CCNc1nc2c(cc1C#N)COC(C)(C)C2,1,103,0.0,i,0.9,-73,123
NS(=O)(=O)c1ccc(F)c(C(=O)O)c1,/,103,/,i,1,/,/
O=C(CC1C(=O)N(c2ccc(F)cc2)C(=O)N1Cc1ccccn1)Nc1ccccc1 (stereo unspecified),2,-33,1.9,i,0.78,/,/
C1CCC(Nc2nnnn2C2CCCCC2)CC1,-4,99,-1.9,i,0.92,/,/
CC(C)CNC(=O)c1ccccc1NC(=O)c1ccccc1N(C)S(=O)(=O)c1ccccc1,3,95,-0.2,i,1,/,/

# Complete entries, looked up by structure. Screens in order: PKD1 inh | RGS16-Gao | GALR2 agonist | HSV augment | HSV augment primary fold | Insulin prom inh | Insulin prom inh cell count
# Shown for c1ccc(-c2csc(-n3cnnn3)n2)cc1 → 7 | 103 | -2.4 | i | 0.88 | -29 | 108
# Shown for Cc1ccc(N(C(=O)c2ccc(CN3CCOCC3)o2)C(C(=O)NCCC(C)C)c2cccs2)c(C)c1 (stereo unspecified) → -6 | 99 | -1.3 | i | 0.85 | / | /
# Shown for NS(=O)(=O)c1ccc(F)c(C(=O)O)c1 → / | 103 | / | i | 1 | / | /
# Shown for CC(C)CCNc1nc2c(cc1C#N)COC(C)(C)C2 → 1 | 103 | 0.0 | i | 0.9 | -73 | 123
# Shown for O=C(c1ccc(-c2ccc(Cl)cc2)o1)N1CCN(c2ccc([N+](=O)[O-])cc2Cl)CC1 → 1 | 100 | -3.5 | / | / | / | /

# Other structures follow.
SMILES,PKD1 inh,RGS16-Gao,GALR2 agonist,HSV augment,HSV augment primary fold,Insulin prom inh,Insulin prom inh cell count
COc1ccc(N(CC(=O)NCc2ccco2)S(C)(=O)=O)cc1Cl,-12,102,-1.1,i,1,/,/
CC(NC(=O)C(Cc1ccccc1)NC(=O)c1ccccc1)C(=O)O (stereo unspecified),-2,101,-2.1,i,0.96,0,108
O=C(NCCOc1ccc(Cl)cc1)c1ccc2ccccc2n1,-5,100,/,i,1,28,101
O=C(c1ccccc1)N1CCN(S(=O)(=O)N2CCCCC2)CC1,-2,104,-1.6,i,0.84,38,74
Cc1ccc(-c2nc(CS(=O)CC(=O)NCc3ccccc3)c(C)o2)cc1 (stereo unspecified),15,98,-0.1,i,0.84,/,/
COc1c(O)ccc2cnn(-c3ccccc3C)c(=O)c12,8,88,-1.5,i,0.86,/,/
CC12CC3CC(C)(C1)CC(C(=O)NCc1ccco1)(C3)C2,-4,98,/,i,1,/,/
CC(=O)n1cc([C@@H]2C=C(C(=O)N3CCN(Cc4ccccc4)CC3)O[C@H](OCc3ccc(CO)cc3)C2)c2ccccc21,-1,116,/,i,0.78,/,/
N#Cc1sc2nc(C3CC3)cc(-c3ccccc3)c2c1N,6,99,0.9,i,1.2,/,/
CCOC(=O)C1(CC2CCCCO2)CCN(C(=O)Nc2ccccc2)CC1 (stereo unspecified),6,105,/,i,0.88,/,/
COc1cc(/C=N/NS(=O)(=O)c2ccc(C)cc2)ccc1OCc1ccc(C(=O)O)cc1,6,98,/,i,0.92,/,/
CC(C)(C)/C(COc1ccccc1[N+](=O)[O-])=N/O,-3,102,/,i,1,/,/
O=C(CCNC(=O)c1ccc(Br)o1)NC1CCCC1,-11,102,-1.6,i,0.84,-3,109
Cc1ccc(O)c(-c2cc(C(=O)Nc3ccc(S(=O)(=O)Nc4nc(C)cc(C)n4)cc3)[nH]n2)c1,2,56,0.2,i,1,17,68
CCCn1cc(SCC(N)=O)c2ccccc21,/,85,/,i,0.93,/,/
CCOC(=O)C1CCCN(C(=S)Nc2ccc(C)cc2C)C1 (stereo unspecified),-9,163,-1.7,i,0.89,-41,141
O=C(c1cc(S(=O)(=O)N2CCOCC2)ccc1F)N1CCCc2ccccc21,0,103,-1.5,i,1,23,87

# An unsorted share of the library. About 1.3% of those tested had a hit in this group.
